Screens (PubChem)
Anaer choline gr: inhibitors of anaerobic choline-dependent gram-negative bacterial growth; calls only; Gram-negative bacterium anaerobic choline minimal medium, absorbance growth; stronger effect = lower value; many inactives read as strong as hits in the columns shown; actives 0.2% (n = 55,000);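 active = growth z-score on choline under -2 at 7 or 20 h with little or no fall on glycerol, limits in tiers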;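 also: stock transfer was 300 nL into about 50 µL; the organism is E. coli; final concentration not given here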
Anaer choline gr early: further read-out of Anaer choline gr, marked with its call; z-score; measured here: choline growth z-score, timepoint 1;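 score of optical density at 7 h as mean of two plates; lower means less growth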
The depositor's hits bear a star; i = inactive; & = joins results of further samples. Some of the compounds tested; count on the stated rates, not on these rows.

Fields – Anaer choline gr	Anaer choline gr early
Cc1cccc(C)c1NC(=O)CN1CCN(CCCC(c2ccc(F)cc2)c2ccc(F)cc2)CC1
 : i	-0.15
CN(Cc1ccc(Cl)cc1)Cc1cc(=O)n2ccsc2n1
 : i	-0.67
Cc1ccc(S(=O)(=O)c2cnc(N3CCN(c4cc(Cl)ccc4C)CC3)nc2N)cc1C
 : i	-0.94
Cc1nc(C)c(-c2nc(-c3ccc(Oc4ccccc4)cc3)no2)s1
 : i	1.5
NS(=O)(=O)c1ccc(NC(=O)Cc2csc(NC(=O)C3CC3)n2)cc1
 : i	-0.67
Cc1ccc(-c2c(C(F)(F)F)nn3c(-n4nc(C)cc4C)cc(C)nc23)cc1
 : i	-0.84
CCS(=O)(=O)c1nc2ccc(NS(=O)(=O)c3cc(C)cc(C)c3)cc2s1
 : i	0.17
CC(C)NC(=O)c1ccc2c(c1)CCCN2C(=O)c1ccccc1
 : i	-0.53
COCCCN1CCc2nc(SCc3ccc(Cl)cc3)[nH]c(=O)c2C1
 : i	-0.12
Fc1ccc(CSc2nc3cccnc3n2Cc2ccccc2F)cc1
 : i	1.1
C=CCn1c(=O)c(=O)n(Cc2ccc(C(=O)NCC3CCCO3)cc2)c2ccccc21 (stereo unspecified)
 : i	-1.2
CCC(=O)N1CCc2cc(-c3ccc(C(=O)NCCc4c[nH]c5ccccc45)cc3)ccc21
 : i	-0.46
CCCCNC(=O)c1cccc(-c2ccc(S(=O)(=O)N3CCCC3)cc2)c1
 : i	-1.2
COc1ccc(-c2noc3ncnc(N4CCC(C(=O)N5CCc6ccccc6C5)CC4)c23)cc1
 : i	0.2
O=C(NC1CC1)C1CCN(S(=O)(=O)Cc2ccc(Cl)cc2)CC1
 : i	0.46
O=C(O)c1cc(N2CCN(C3CCCCC3)CC2)ccc1NC(=O)C1CC1
 : i	1.4
Cc1ccc2c(c1)N(C(=O)C1CCCO1)CC(C)O2 (stereo unspecified)
 : i	1.7
Cc1nc(Nc2ccc3c(c2)OCCO3)c2c(C)noc2n1
 : i	-0.42
O=C(NCCN1CCOCC1)C1CCN(c2cncnc2N2CCCC2)CC1
 : i	0.73
Cc1cc(C)n(-c2cc(N3CCN(c4ccc(F)cc4)CC3)ncn2)n1
 : i	-0.78

Whole records as entered above:
Cc1cc(C)n(-c2cc(N3CCN(c4ccc(F)cc4)CC3)ncn2)n1 is entered as Anaer choline gr: i; Anaer choline gr early: -0.78
Cc1ccc(S(=O)(=O)c2cnc(N3CCN(c4cc(Cl)ccc4C)CC3)nc2N)cc1C is entered as Anaer choline gr: i; Anaer choline gr early: -0.94

Other structures follow:
Fields – Anaer choline gr	Anaer choline gr early
CN(C)CCCN(C(=O)c1ccc2c(c1)OCCO2)c1nc2ccc(Cl)cc2s1
 : i	-0.91
CCSc1ncc(Cl)c(C(=O)Nc2c(C)n(C)n(-c3ccccc3)c2=O)n1
 : i	-0.97
COc1ccc(NC(=O)c2ncn(-c3ccccc3)n2)cc1
 : i	-0.47
CN(C)c1nc2ncn3c(=O)n(CC(=O)NCc4ccccc4Cl)nc3c2s1
 : i	-0.34
O=C(CNS(=O)(=O)c1cccc2nsnc12)N1CCC(c2nc(-c3ccccc3)no2)CC1
 : i	-0.59
CCOc1c(C(=O)OC)sc2ccc(NC(=O)c3ccc(OC)c(OC)c3)cc12
 : i	1.4
CCn1nccc1C1CCCN1S(=O)(=O)c1cccc(Cl)c1 (stereo unspecified)
 : i	-0.05
CCOC(=O)c1cc2c(C)n(C)c(C)c2cc(C(=O)OCC)c1=O
 : i	-0.98
COc1cccc(CCN2CCC(CNS(=O)(=O)c3cnc[nH]3)CC2)c1
 : i	-1.2
N=C(N)SCCc1ccc(OCc2ccc([N+](=O)[O-])cc2)cc1
 : i	-2.6
CCCn1nnc2cc(S(=O)(=O)N3CCCC(C(=O)NCc4ccc(F)cc4)C3)ccc21 (stereo unspecified)
 : i	0.18
Cc1oc2ncnc(N3CCCC(C(=O)NCc4cccnc4)C3)c2c1C (stereo unspecified)
 : i	-0.67
COc1ccc(OC)c2c(C)cc(N3CCN(S(=O)(=O)c4ccc(C)cc4)CC3)nc12
 : i	-0.41
COC(=O)c1ccc2c(=O)n(-c3ccc(C(=O)N4CCN(c5ccccn5)CC4)cc3)c(=S)[nH]c2c1
 : i	1.7
O=C(CN1C(=O)c2ccccc2C1=O)N1CCN(c2ncnc3c2nnn3-c2cccc(F)c2)CC1
 : i	1.1
O=C(Cn1c2c(c(=O)n3ncnc13)CCC2)Nc1ccccc1
 : i	0.08
CCOc1ccc(NC(=O)c2scc(-c3ccccc3)c2S(=O)(=O)N(C)c2ccc(C)cc2)cc1
 : i	1.1
Cc1cc2nc(COc3ccc(Cl)cc3NC(=O)c3ccc4c(c3)OCO4)cc(=O)n2o1
 : i	2.4
CCc1nc(CN2C(=O)COc3ccc(S(=O)(=O)NCC4CCCO4)cc32)no1 (stereo unspecified)
 : i	-0.09
O=C(C1CC(=O)N(C2CCCCC2)C1)N1CCCC1 (stereo unspecified)
 : i	0.68
CCOc1ccc(-n2nnc3c(N4CCN(S(=O)(=O)CC)CC4)ncnc32)cc1
 : i	0.06
Cc1ccc(N(C)S(=O)(=O)c2ccc3c(c2)NC(=O)CO3)cc1
 : i	-0.01
CCOc1ncccc1C(=O)Nc1cccc(-c2nc3cccnc3s2)c1
 : i	0.86
Cc1ccc2[nH]cc(CCNC(=O)c3cccc(Cn4c(=O)c5cccn5c5cccnc54)c3)c2c1
 : i	0.36
CN(C)c1ccc(-c2nc3cnc(Br)cn3c2Nc2ccc3c(c2)OCO3)cc1
 : i	-0.96
Cc1cc(C)c2c(n1)SCCN2C(=O)NCCC(=O)NC1CCCC1
 : i	0.58
COC(=O)c1ncn2c1C(=O)N(c1ccc(OC)c(Cl)c1)C(C)(C(=O)NC1CCCC1)C2 (stereo unspecified)
 : i	-0.98
CCc1ccc(CN2CCCC2c2c(C)noc2C)cc1 (stereo unspecified)
 : i	-1.1
CN1C(=O)c2cc(C(=O)NCCC3=CCCCC3)nn2CC1(C)C(=O)NC1CCCC1 (stereo unspecified)
 : i	1.7
O=C(Cn1ccc2cc(S(=O)(=O)N3CCCC3)ccc21)NCc1ccccc1Cl
 : i	-0.71
CCc1ccc(NC(=O)NCC2CCN(Cc3cccc(Cl)c3)CC2)cc1
 : i	0.21
Cn1nc2n(CCC(=O)NC3CCCCC3)c(=O)c3ccccc3n2c1=O
 : i	0.28
O=c1[nH]cnc2c1nnn2-c1ccc(F)cc1
 : i	-2.5
CCOc1ccc(N2C(=O)CC(c3ccc(OC)cc3)CC2=O)cc1
 : i	1.6
O=C(CCn1cnc2ccccc2c1=O)Nc1ccc2c(c1)OCCO2
 : i	-1.5
CCOC(=O)c1cc(S(=O)(=O)N2CCCC2C(=O)NC(C)C)cn1C (stereo unspecified)
 : i	-0.04
CCN(CC)S(=O)(=O)c1ccc2nc(N3CCN(C4CCCCC4)CC3)cnc2c1
 : i	-0.33
O=S(=O)(NCc1ccc2c(c1)OCO2)c1ccc2c(c1)-c1oncc1CO2
 : i	-0.93
NS(=O)(=O)c1ccc(NC(=O)CN2C(=O)C(C(=O)N3CCCC3)Sc3ccccc32)cc1 (stereo unspecified)
 : i	1.3
Cc1nc2ncnn2c(N2CCC(C)CC2)c1C
 : i	0.28
CN(C)c1oc(-c2ccc(Cl)cc2)nc1S(=O)(=O)c1ccc(F)cc1
 : i	0.52
COc1ccc(C(=O)Nc2nnc(C)s2)c(OC)n1
 : i	-0.98
COC(=O)c1cccc(NC(=O)c2nsc3ccccc23)c1
 : i	0.45
Cc1cc(Br)ccc1NS(=O)(=O)c1cc(-c2nc(C)c(C)s2)cs1
 : i	-0.83
COC(=O)Cn1c(=O)c2c(nc3n2CCCN3c2ccccc2)n(C)c1=O
 : i	0.54
CCSc1nc2sc3c(c2c(=O)n1-c1ccccc1)CC(C(C)C)OC3 (stereo unspecified)
 : i	0.58
CC(=O)[C@@]1(O)CC[C@H]2[C@@H]3C[C@H](C)C4=CC(=O)C=C[C@]4(C)[C@@]3(F)[C@@H](O)C[C@@]21C
 : i	0.33
CCc1cc(C2CCCN2Cc2cc(Br)ccc2O)on1 (stereo unspecified)
 : i	-0.4
CCOC(=O)c1nc(Nc2cccc(Cl)c2)c2c(C)c(C)n(-c3ccccc3)c2n1
 : i	-0.29
Cc1ccc(-n2nc(C)c3nc(CCC(=O)Nc4c(C)cccc4C)c(=O)n(C)c32)cc1
 : i	-1.2
Cc1ccc(-c2ccc(C(=O)NCc3ccc4c(c3)OCO4)cn2)cc1
 : i	0.98
O=S(=O)(c1ccc(-c2cnc(C3CCC3)o2)s1)N1CCCCC1
 : i	-0.08
Cc1ccc(S(=O)(=O)NC(C)C(=O)N2CCN(c3ccc(-c4noc(C)n4)cc3)CC2)cc1 (stereo unspecified)
 : i	0.32
NC(=O)c1c(NC(=O)C2CCCN(C(=O)C3CCCC3)C2)sc2c1CCCC2 (stereo unspecified)
 : i	0.82
COc1ccc(NC(=O)c2nnc(CCCC(=O)NCc3cccnc3)s2)cc1
 : i	-1.1
COc1ccc(N2CCN(C(=O)CSc3nccc4c3ccn4Cc3ccc(F)cc3)CC2)cc1
 : i	0.59
CCCCCCCCCCCCCCCCn1cc[n+](Cc2ccccc2)c1C
 : i	-3.5
Cc1ccc(COC2CN(C(=O)c3cccc(C)c3)C2)cc1
 : i	-0.49
COC(=O)c1nc2ccccc2nc1N1CCN(c2cccc(OC)c2)CC1
 : i	0.28
COc1cccc(NC(=O)C2CCN(Cc3noc(-c4ccc(C)cc4)n3)CC2)c1
 : i	0.78

Next records:
Fields – Anaer choline gr	Anaer choline gr early
O=C(NCc1ccc(Cl)cc1)C1CCCN(c2nn3c(=O)c4c(nc3s2)CCCC4)C1 (stereo unspecified)
 : i	-0.29
CC(C)OCCCNC(=O)Cn1c(=O)c(=O)n(C)c2ncccc21
 : i	-0.59
Cc1cccc(NC(=O)C2CCCN(c3ccc4cc(S(=O)(=O)N5CCCC5)ccc4n3)C2)c1 (stereo unspecified)
 : i	-0.62
Cc1nc2cc(-c3noc(-c4ccc(Br)o4)n3)ccc2o1
 : i	-1.2
O=c1n(Cc2cc(F)cc(F)c2)nc2c(S(=O)(=O)N3CCCC3)cccn12
 : i	0.75
CC1CCN(C(=O)c2cc3c(s2)CCC(C(=O)NCCN2CCCCC2)C3)CC1 (stereo unspecified)
 : i	0.13
COc1cccc(NC(=O)CN(C)C(=O)c2ccc3c(c2)nnn3C)c1
 : i	0.1
CCCc1nc2nc[nH]n2c(=O)c1NS(=O)(=O)c1ccc(OC)cc1
 : i	-1.6
Cn1cc(-c2nc(-c3cccnc3)no2)c(=O)c2cc(F)c(N3CCOCC3)cc21
 : i	-0.46
CCCn1c(Cn2ccnc2C)nc2cc(NC(=O)CC)ccc21
 : i	0.43
O=C(Nc1ccc(-c2nc(-c3ccccc3)co2)cc1)Nc1ccc2c(c1)OCCO2
 : i	-0.64
CCC1(C)CC(=O)c2c(ccc3oc(C(=O)NCc4ccc(C)cc4)c(C)c23)O1 (stereo unspecified)
 : i	0.44
O=C(Nc1ccccc1Cl)N1CCN(Cc2cc(=O)n3nc(-c4cccc(F)c4)sc3n2)CC1
 : i	0.28
CCCNC(=O)c1n[nH]c2c1CCCCCC2
 : i	-0.31
COc1ccc(CCNC(=O)c2ccc(NC(=O)c3nsc4ccccc34)cc2)cc1OC
 : i	0.57
Cc1c(C(=O)NC2CC2)sc2ncnc(N3CCN(C)CC3)c12
 : i	0.36
Cc1nc2nc(-c3ccc(Cl)cc3)nn2c(C)c1CC(=O)NC(C)C
 : i	-0.06
CC(C)NC(=O)Cn1c(=O)n(CC2CCC(C(=O)NCc3ccccc3)CC2)c(=O)c2sccc21 (stereo unspecified)
 : i	0.25
Clc1ccc(-c2ccc(CNCc3ccccn3)o2)cc1
 : i	-0.57
COc1ccc(OC)c(CNC(=O)CN=C2NS(=O)(=O)C(c3ccc(Cl)cc3)=C2C)c1
 : i	0.29

3 of the entries above in order of the Anaer choline gr early value, high to low:
mol	Anaer choline gr	Anaer choline gr early
CCCn1c(Cn2ccnc2C)nc2cc(NC(=O)CC)ccc21	i	0.43
Cc1nc2nc(-c3ccc(Cl)cc3)nn2c(C)c1CC(=O)NC(C)C	i	-0.06
CCCc1nc2nc[nH]n2c(=O)c1NS(=O)(=O)c1ccc(OC)cc1	i	-1.6

Next entries follow:
Fields – Anaer choline gr	Anaer choline gr early
CC(C)c1nnc(-c2coc(S(=O)(=O)N3CCC(N4CCCCC4)CC3)c2)o1
 : i	0.54
CN(CC1(C)CCOCC1)S(=O)(=O)c1ccc(C(F)(F)F)cc1
 : i	0.47
COc1cccc(-c2cc(=O)n3c4ccccc4n(CC(=O)Nc4cc(OC)ccc4OC)c3n2)c1
 : i	-0.35
NC[C@H](O)c1ccc(O)c(O)c1
 : i	0.37&0.83&0.72
Cc1nc2nc(C3CCCCC3)nn2c(C)c1CC(=O)NC(C)C
 : i	-0.58
CCCn1c(=O)[nH]c2c(C(=O)N3CCC(C)CC3)snc2c1=O
 : i	0.5
C=CCn1c(=O)c2c(nc3n2CC(C)CN3c2cc(C)cc(C)c2)n(C)c1=O (stereo unspecified)
 : i	0.83
Cc1cc(C(=O)N2CCN(c3ncccn3)CC2)c2cccc(-c3ccc(F)cc3)c2n1
 : i	0.22
COC(=O)c1c(C)sc(-c2c(-c3ccc(Br)cc3)[nH]c3c2c(=O)[nH]c(=O)n3C)c1O
 : i	0.25
CC(=O)N1CCc2cc(S(=O)(=O)NCCn3nc(-c4ccc(Cl)cc4)ccc3=O)ccc21
 : i	0.48
CC1(C(=O)NC2CCCCC2)Cn2c(cc3sccc32)C(=O)N1CCc1ccc(Cl)cc1 (stereo unspecified)
 : i	0.24
Cc1ccc(S(=O)(=O)N2CCN(Cc3ccc4c(c3)OCO4)CC2)cc1
 : i	0.46
